Source: PubChem BioAssay
Menin-MLL FL inh – qHTS Assay for Inhibitors Targeting the Menin-MLL Interaction in MLL Related Leukemias: Competition With Fluorescein Labeled MLL-derived Peptide. 290,000 tested, under 10 active. Fluorescence polarization, fluorescein-MLL peptide displacement from menin. FP activity change, % at 61.4 µM; inconclusive = falling polarisation curve, or a change in total fluorescence; inactive = total fluorescence flat and polarisation flat or rising; no compound was filed as active; the % refers to the polarisation; negative = inhibition;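 also: % of control where 0% means no effect; inhibitors lower the polarisation; unlabelled MLL peptide was the positive control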
gsp antagonist – qHTS for Antagonists of gsp, the Etiologic Mutation Responsible for Fibrous Dysplasia/McCune-Albright Syndrome: qHTS. hit rate 0.4% among 340,000. Potency, µM (titrated, usually from 76.9 µM), for the others: at the highest dose activity change, negative = inhibition, most hits filed as inhibitors. gsp-mutant cells, cAMP HTRF, 30 min; control for the full effect not named in the record. AID 624288, 2012; active = falling curve of any shape with a large fitted effect; inconclusive = falling curve, mostly with a smaller effect; inactive = flat or rising curve; cell line not stated here;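 also: intracellular cAMP measured with PDE inhibitor Ro 20-1724 present during compound exposure; potency is read from the fitted curve at half-maximal effect; % is scaled to controls: 0 for no effect and ±100 for the full control effect; nearly all actives have a fitted effect of over 65% in size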
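HTRF cAMP measurement after 30 min RT detection following 30 min, 37C compound treatment alongside […] (added as 300 uM solution) in G418-selected cells seeded at 2000/well and grown 16–24 h.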
ClpP mod – qHTS Assay for Activators of ClpP. Potency, µM (highest dose often 57.5 µM), for the others: top-dose activity change, negative = active. ATP-dependent Clp protease proteolytic subunit (Bacillus subtilis (strain 168)), P80244. hit rate 1.9% among 340,000. purified B. subtilis ClpP, FRET peptide cleavage, 20 min; active = well fitted falling curve with a large enough effect; inconclusive = small, poorly fitted or top-dose-only effect; inactive = no such curve, though single readings can be large or run the other way; also: potency is read from the fitted curve at half-maximal effect; the source files actives as falling curves though it sought activators and does not explain the sign; nearly all actives have a fitted effect of over 65% in size; many hits overshoot -100%
Target sequence (P80244 whole entry, looked up): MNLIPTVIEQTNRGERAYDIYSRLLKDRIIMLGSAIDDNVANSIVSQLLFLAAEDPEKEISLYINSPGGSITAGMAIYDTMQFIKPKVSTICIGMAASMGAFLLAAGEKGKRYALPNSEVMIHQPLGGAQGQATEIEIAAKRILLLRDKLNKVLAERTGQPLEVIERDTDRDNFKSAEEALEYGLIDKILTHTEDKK
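Purified B. subtilis ClpP, 10 microg/mL final in Tris/HCl pH8 with KCl, BSA, glycerol and Tween-20, cleaved an Abz/nitrotyrosine-quenched decapeptide. Fluorescence (ex 320, em 430) was read at 0 and 20 min at room temperature. Delta was normalized to 5.8 microM ADEP and DMSO/no-enzyme controls.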
D2 ag – Beta-Arrestin HTS for Positive Allosteric Modulators of the Human D2 Dopamine Receptor: Agonists; D(2) dopamine receptor (Homo sapiens), P14416; DiscoveRx PathHunter D2 beta-arrestin, luminescence, 90 min; 100% = 57 uM dopamine signal; activation, % (no concentration beside the values); hit rate 0.084% among 360,000; AID 624465, 2012; in the data active = activation above about 40%; inconclusive = about 15% to 40%; inactive = below about 15%; also: compound concentration not given in the record; the text of the record calls up to 30% inactive
Target sequence (P14416 whole entry, looked up): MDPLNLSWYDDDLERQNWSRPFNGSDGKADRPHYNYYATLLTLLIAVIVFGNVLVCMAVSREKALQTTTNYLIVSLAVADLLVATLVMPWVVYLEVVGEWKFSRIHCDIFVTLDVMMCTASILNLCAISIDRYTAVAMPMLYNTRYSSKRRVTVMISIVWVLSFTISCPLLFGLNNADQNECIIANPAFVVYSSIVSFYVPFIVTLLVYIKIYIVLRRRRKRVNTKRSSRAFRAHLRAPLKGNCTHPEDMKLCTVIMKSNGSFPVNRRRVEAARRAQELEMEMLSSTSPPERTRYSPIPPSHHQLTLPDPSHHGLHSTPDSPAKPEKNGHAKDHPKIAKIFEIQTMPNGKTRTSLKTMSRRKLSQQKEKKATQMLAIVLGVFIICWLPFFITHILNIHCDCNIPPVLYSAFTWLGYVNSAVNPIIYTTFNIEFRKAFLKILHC
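Agonist mode: compounds alone added to overnight-plated D2 PathHunter cells for 90 min at 37 C, with 57 uM final dopamine (EC100) defining full response. Beta-arrestin recruitment detected by chemiluminescent reagent, read after 1 h at ambient temperature.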
PINK1 modulator – A Quantitative High throughput Screen to Identify Chemical Modulators of PINK1 Expression | PINK1 immunofluorescence, high-content cytometry, 24 h | Potency, µM (top dose mostly 76.6 µM), for inactives: at the top dose activation (PINK1 increase), most hits filed as activators | hit rate 0.2% among 410,000 | AID 624263, 2012; active = well fitted activation curve with a large enough effect; inconclusive = small, poorly fitted or top-dose-only effect; inactive = flat fitted curve, though single readings scatter; cell line not stated here;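 also: potency is read from the fitted curve at half-maximal effect; % of control where 0% means no effect; nearly all actives have a fitted effect of over 65% in size; a mitochondrial uncoupler was the plate control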
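A stable cell line was treated with compounds at 5 concentrations for 24 hours, with CCCP as control. PINK1 levels and mitochondrial localization were measured by immunofluorescence with mitochondrial, cell and nuclear markers after fixation, read by laser-scanning cytometry.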
Sfp inh – qHTS Assay for Inhibitors of Bacillus subtilis Sfp phosphopantetheinyl transferase (PPTase); Potency, µM, for inactives: max response, negative = inhibition, actives largely listed as inhibitors; Biochemical Sfp PPTase activity, qHTS; AID 1490, 2009; hit rate 3.5% among 310,000; active = well fitted inhibition curve with a large enough effect; inconclusive = small, poorly fitted or top-dose-only effect, or another doubt; inactive = no such curve, though single readings can be large or run the other way;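 also: the enzyme is Sfp with the accession as filed and its product quenches rhodamine fluorescence; potency is read from the fitted curve at half-maximal effect; 0% = enzyme reaction without inhibitor and -100% = no enzyme wells; top concentration of the series not given in the record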
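After 15 min at room temperature with compound, 15 nM Sfp received 5 uM rhodamine-CoA plus 12.5 uM BHQ-2-ybbR (50 mM Hepes pH 7.6, 10 mM MgCl2). Rate came from the fluorescence difference over 30 min, ex 525/em 598 nm.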
gsp agonist – qHTS for Agonist of gsp, the Etiologic Mutation Responsible for Fibrous Dysplasia/McCune-Albright Syndrome: qHTS | gsp mutant cells, cAMP HTRF, 30 min; control for the full effect not named in the record | Potency, µM (series often up to 76.9 µM), without a hit: top-dose activation (cAMP increase), usual class: activators | hit rate 0.13% among 340,000; active = well fitted activation curve with a large enough effect; inconclusive = small, poorly fitted or top-dose-only effect, or another doubt; inactive = no such curve, though single readings can be large or run the other way; cell line not stated here;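 also: phosphodiesterase inhibitor Ro 20-1724 added with compounds to block cAMP breakdown; potency is read from the fitted curve at half-maximal effect; nearly all actives have a fitted effect of over 60% in size; about a fifth of the inactives were tested at one dose only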
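Cells in DMEM/10% FBS with G418 were pretreated with compounds in DMSO plus […] (300 uM stock) for 30 min at 37C. cAMP was measured by HTRF (cAMP-d2 plus anti-cAMP antibody-K) after 30 min at room temperature.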
* hit, by the source's call; ? = inconclusive; nt = no result given; & = joins results of further samples; [ ] = another dose, or the depositor's remark.

SMILES | Menin-MLL FL inh | gsp antagonist | ClpP mod | D2 ag | PINK1 modulator | Sfp inh | gsp agonist
CC12CCC(=O)N1C(C(=O)Nc1nc(-c3ccccc3Cl)cs1)CS2 (stereo not drawn) | nt | -7% | -3.1% | -2.3 | -0.6% | nt | 28%
C/C(CCN1CCc2nc(-c3ccccc3)c(-c3ccccc3)cc2C1)=N\O[C@@H](C)c1cc(-c2c(C)cc(C)cc2C)no1 | -3.6[11.7 µM] | -1% | -14% | 1.2 | 11% | 0%&2% | 4%
CN1C(=O)C2(NC(=O)c3ccccc3N2C)c2ccccc21 (stereo not drawn) | -3.6 | 5% | -2.2% | -1.4 | 0.9% | 11% | ?
Cc1ccc(NC(=O)OCCNC(=O)OC(C)C)cc1 | 0.6 | nt | nt | 1.6 | 3.3% | 13% | -9%[15.4 µM]
COc1ccc2c3c(cccc13)C(=O)CC2 | ? | 12% | 0.6% | -3.6 | -0.1% | ? | -2%[15.4 µM]
Nn1c(CSc2ccccn2)nc2ccccc2c1=O | -1.3 | 0% | -0.6% | -1.7 | 0.8% | -8% | 12%
O=C(N/N=C/c1cc([N+](=O)[O-])ccc1O)c1c[nH]c2ccccc12 | 6.1 | ? | -0.2% | -7.8 | 35µM* | 11% | ?
Cc1cc(NC(=O)C(C)C)ncc1NC(=O)c1ccccn1 | -5.8 | 17% | -0.4% | -6.0 | -0.9% | 79µM* | 30%
CN(C)S(=O)(=O)c1cccc(NC(=O)COc2ccc3ccccc3c2)c1 | nt | ? | -3.8% | -0.1 | 1.4% | nt | -18%
CC(C)N(C)c1ncnc2c1ncn2[C@H]1CN(C2CCCC2)C[C@@H](CO)O1 | nt | nt | 1.3% | -4.3 | 2.0% | nt | nt
COc1ccc(/C=N/NC(=O)c2ccc(-n3cnnn3)cc2)cc1 | nt | 6% | nt | -2.4 | 2.7% | nt | 20%[15.4 µM]
Cc1ccc(C)c(OCCC(=O)N2CCN(S(=O)(=O)c3cc(C)ccc3C)CC2)c1 | nt | ? | 0.6% | 0.3 | 1.8% | nt | 11%[15.4 µM]
Cc1ccc(OCCC(=O)OCC(=O)N2CCN(S(=O)(=O)c3ccc(C)cc3C)CC2)cc1 | nt | 0% | -0.7% | 1.8 | -4.4% | nt | 3%
CC(C)n1cc(C(=O)NC2CC(C)(C)Cc3c2cnn3-c2ccccc2)cn1 (stereo not drawn) | -0.5 | -8% | 0.1% | -4.0 | 1.1% | 14% | ?
O=C(NCc1cccnc1)C1CCC(c2ccc(Cl)cc2)CC1 (stereo not drawn) | 3.7 | -7% | 28µM* | -0.5 | 2.6% | 13% | -14%[15.4 µM]
Cc1cccc(-c2nc3ccccc3c(=O)n2NC(=O)/C=C/c2ccc([N+](=O)[O-])cc2)c1 | 3.2 | -8% | -0.4% | -0.1 | 0.6% | -16% | 5%
CCc1cnc(Nc2nc(C(N)Cc3ccc(Cl)cc3)cs2)nc1 (stereo not drawn) | nt | nt | 3.0% | 1.3 | -0.9% | nt | nt
O=S1(=O)CCC(NC(=S)N2CCCCC2)C1 (stereo not drawn) | 2.2 | 1% | -0.2% | -1.4 | -0.5% | 9% | -2%
FC(F)Sc1ccc(N=C2NN=C(c3ccc4c(c3)OCCO4)CS2)cc1 | 1.9 | 5% | -2.6% | -2.6 | nt | 0% | -3%
Cc1ccccc1C(=O)NNC(=O)C12CC3CC(CC(C3)C1)C2 | 0.5 | 14% | nt | -9.4 | 1.8% | 18% | -1%[15.4 µM]
COc1ccc(-n2nc3cc(C)c(NC(=O)c4cccnc4)cc3n2)cc1 | 0.2 | -4% | 25µM* | -4.8 | 14% | 4% | 25%
Oc1ccccc1C=NN=C1c2ccccc2-c2ccccc21 | nt | -4% | 0.9% | -0.4 | 8.6% | nt | ?
COc1ccc(-n2c(Cc3cc(=O)[nH]c(=O)[nH]3)nnc2SCC(=O)N2CCC(C)CC2)cc1 | -0.6 | 12% | -6.7% | -0.4 | 0.7% | -10% | -1%
COc1ccc(CNc2nc(-c3cccnc3)nn2C(=O)C(C)C)cc1 | -1.9 | -10% | nt | 4.5 | -0.2% | 17% | -34%[inhibitor]
Nc1ncnc2c1ncn2[C@@H]1O[C@H](CNC(=O)[C@@H](N)Cc2ccccc2)[C@@H](O)[C@H]1O | nt | 14% | -0.5% | -1.8 | 0.4% | nt | nt

Sfp inh, entries above that show a hit.
SMILES	Menin-MLL FL inh	D2 ag	PINK1 modulator	Sfp inh	gsp agonist
Cc1cc(NC(=O)C(C)C)ncc1NC(=O)c1ccccn1	-5.8	-6.0	-0.9%	79µM*	30%

(cont.)
SMILES | Menin-MLL FL inh | gsp antagonist | ClpP mod | D2 ag | PINK1 modulator | Sfp inh | gsp agonist
Cc1ccc(-n2c(-c3ccccc3)n[nH]c2=S)c(C)c1 | -1.7 | -35% | -12% | -7.5 | 3.4% | -17% | 12%
CC(=O)c1ccc(NC(=O)C2CCCN2S(=O)(=O)c2ccc(F)cc2)cc1 (stereo not drawn) | 4.8 | 1% | 1.4% | -0.8 | 0.2% | -4% | -143%[inhibitor]
COc1ccc(N2C(=O)c3ccc(NC(C)=O)cc3C2=O)cc1 | -1.9 | -2% | -0.4% | 1.8 | -2.1% | 16% | 26%
C/C(=N\NC(=O)c1ccn(C)n1)c1ccc(NC(=O)C2CCCC2)cc1 | 0.6 | 5% | 0.9% | -3.1 | 0.1% | 18% | 1%
CCCC(=O)Nc1ccc2c(c1)nc(CN1CCN(C(C)=O)CC1)n2C | 0.0 | -3% | -0.1% | -3.5 | 0.0% | -1% | 20%
COc1ccc(-n2nnnc2SCC(=O)N2CCN(C(=O)c3ccco3)CC2)cc1OC | 1.2 | -6% | nt | -2.7 | -1.0% | -10% | 3%[15.4 µM]
O=[N+]([O-])c1cccc(S(=O)(=O)NCc2ccccn2)c1 | 0.2 | 14% | nt | 1.0 | 8.4% | 2% | ?
O=C(NC1CCCCCC1)C1CCN(S(=O)(=O)c2c(Cl)cccc2Cl)CC1 | nt | -1% | -0.3% | 1.5 | 4.5% | nt | -5%
Cc1ccc(S(=O)(=O)c2c(C)cc(C)nc2N2CCOCC2)cc1 | -9.2 | nt | nt | -3.7 | 0.0% | 2% | 5%[15.4 µM]
CC(C)(C)N1CC(c2nc3ccccc3n2Cc2ccc(F)cc2)CC1=O (stereo not drawn) | 4.5 | -6% | -1.7% | -3.0 | -0.9% | 6% | -4%
O=c1oc2cc(OCc3ccc(F)cc3F)ccc2cc1-c1ccccn1 | -1.4 | 30% | 3.2µM* | -3.2 | 6.0% | 12% | ?
Cc1noc(NS(=O)(=O)c2ccc(NC(=O)c3cc(F)c(F)c(F)c3F)cc2)c1C | nt | -9% | 0.1% | -1.4 | -0.7% | nt | 3%[15.4 µM]
Cc1cccc2nc(CSc3nnc(N)s3)cn12 | 0.4 | -6% | nt | -3.8 | 1.5% | 2% | -1%[15.4 µM]
CC1CCN(C(=O)/C(=C\c2ccco2)NC(=O)c2ccccc2)CC1 | 8.0 | 0% | nt | -3.4 | 0.3% | 10% | -7%[15.4 µM]
O=C(c1ccc([N+](=O)[O-])cc1)N1CCC(Cc2ccccc2)CC1 | -0.4 | -32% | nt | 1.2 | -0.4% | -3% | 22%[15.4 µM]
COCc1cc(C)nc(SCC[N+](C)(C)CC(=O)c2ccc(Br)cc2)c1C#N | -1.9 | 7% | nt | -2.3 | 0.5% | 17% | 3%[15.4 µM]
Cc1c(Cl)cccc1NC(=S)NCCC(c1ccccc1)c1ccccc1 | 0.3 | ? | -1.6% | -1.8 | ? | 14% | -2%
CCOC(=O)[C@H]1[C@H]2COc3cc(OC)ccc3[C@@H]2N2C(=O)CN(CC3CCCO3)C(=O)[C@@]12C (stereo partly drawn) | nt | 5% | -2.5% | -3.9 | 0.0% | nt | ?
CCN(C[C@H]1N[C@@](Cc2ccccc2)(C(=O)OC)[C@H]2C(=O)N(Cc3ccccc3)C(=O)[C@@H]12)C(=O)c1ccccc1 | nt | -7% | 0.2% | 0.7 | 0.5% | nt | nt
O=C(CSc1ccc(Cl)cc1)Nc1ccccc1 | nt | nt | -3.2% | -3.9 | 0.7% | nt | 19%
CCCCCc1ccc(OCCCC[n+]2ccccc2)c(CCCCC)c1 | -5.4 | 6% | nt | -6.0 | 3.6% | 35µM* | -33%
COC(=O)c1ccc(CSC2=NC[C@@H]3[C@@H]4C(=O)N(C)C(=O)[C@@H]4[C@](C)(C(=O)OC)N23)cc1 | nt | 0% | 0.4% | -1.5 | -1.5% | nt | nt
CCCn1cc(S(=O)(=O)c2ccc(F)cc2)c(=O)c2cc(OCC)ccc21 | nt | -14% | 3.5% | -1.0 | -0.2% | 6% | 20%
Oc1ccccc1-c1cc(-c2ccc(F)cc2)n[nH]1 | -0.6 | -3% | 2.0% | 4.3 | 3.3% | 1% | 6%[15.4 µM]
O=C(c1cnn2c(C(F)(F)F)cc(-c3cccs3)nc12)N1CCN(Cc2ccccc2)CC1 | 0.6 | -6% | -4.7% | -0.5 | -1.3% | 8% | -18%
COc1ccc(NC(=O)c2oc3ccccc3c2C)cn1 | nt | -6% | -1.7% | 1.1 | 0.3% | 5% | -3%
COc1ccc(OCc2nnc(SCC(=O)Nc3ccc(C)cc3)o2)cc1 | -23 | 9% | nt | -1.1 | 0.1% | 14% | -25%
COc1ncc(-c2cccc3nccn23)c(OC)n1 | nt | nt | 4.4% | -6.3 | -0.4% | nt | nt
